Assay outcomes (PubChem)
GIV-Gai inh – inhibitors of GIV GBA-motif binding to rat Galpha-i3. P08753. percent of control (FP), % (test concentration not listed). 210,000 tested, 0.42% active. Galpha-i3/FITC-GIV peptide fluorescence polarization, 90 min; active compounds read low; scaled: aluminum fluoride 0%, vehicle 100%;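 active = replicate mean at 85% of control or lower, very high polarization wells dropped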;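 also: lower values mean more displacement of the GIV peptide from Galpha-i3; wells of about 15 µL received 100 nL stock; the first replicate is given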
Target sequence (P08753 whole entry, looked up): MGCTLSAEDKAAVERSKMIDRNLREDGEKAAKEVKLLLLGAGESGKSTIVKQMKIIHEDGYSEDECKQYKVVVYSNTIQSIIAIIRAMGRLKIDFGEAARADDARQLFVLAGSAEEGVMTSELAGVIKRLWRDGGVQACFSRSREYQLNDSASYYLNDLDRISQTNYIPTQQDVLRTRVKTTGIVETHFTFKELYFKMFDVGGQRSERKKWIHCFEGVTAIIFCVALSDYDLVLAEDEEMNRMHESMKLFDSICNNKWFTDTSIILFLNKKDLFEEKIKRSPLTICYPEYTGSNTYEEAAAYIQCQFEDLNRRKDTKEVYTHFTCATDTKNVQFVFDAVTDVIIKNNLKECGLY
Sa growth 42C – inhibitors of Staphylococcus aureus growth at 42 °C | S. aureus RN4220 growth, OD600, 20 h; active compounds read low | relative growth, % (test concentration not listed) | 170,000 tested, 0.53% active | AID 720641;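 active = growth at 42 °C up to 50% and 20 or more points under that at 30 °C, or under 10% at both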;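 also: 300 nL library stock went into each well; scaled to the means of positive and negative controls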
HCMV NEC inh – cytomegalovirus nuclear egress complex inhibition; HTRF UL50-UL53 interaction, normalized percent inhibition; inhibition, % (concentration not given with the values); 190,000 tested, 0.15% active;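 active = both replicates at 50% or more, plus weaker picks with an unusually low signal ratio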;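 also: stock transfer was 100 nL into about 20 µL; 0% = negative control wells and 100% = wells with untagged competitor protein; inactives centre near -12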
Sa growth 42C second temp – recorded beside Sa growth 42C, whose call it bears; relative growth, %; measured here: growth at 30 °C;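 optical density after 20 h as mean of two plates; 100% = untreated growth and lower means inhibition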
Starred values were filed as active, the others as inactive; · = no result given; & = joins results of further samples. Rows were taken by chance; any-hit rate near 0.83%.

molecule	GIV-Gai inh	Sa growth 42C	Sa growth 42C second temp	HCMV NEC inh
Cc1ccc2c(c1)N(C(=O)N1CCC(C(=O)NCc3ccccc3)CC1)CCO2	110	·	·	-27
O=C(Cn1nc(Cc2cccnc2)c2ccccc2c1=O)Nc1cccc(C(F)(F)F)c1	103	106	72	-32
COc1cccc(C2=C(C(C)=O)Sc3nncn3N2C(C)=O)c1	100	123	86	·
COc1ccc(OCC(O)CNC(=O)c2ccccc2)cc1 (stereo not given)	110	98	86	-9
CC1(C)Cc2cccc(OCC(=O)Nc3cc(Cl)ccc3O)c2O1	105	·	·	-17
COc1ccc(-c2nc3sc(N(C)CC(=O)NCCN4CCOCC4)nn3c2NC(C)(C)C)cc1	101	·	·	-16
O=C(OCC(=O)N1CCN(S(=O)(=O)c2ccc3ccccc3c2)CC1)c1n[nH]c2ccccc12	·	95	92	-25
CCc1ccc(NC(=O)COC(=O)CC2(CC(=O)N3CCOCC3)CCCCC2)cc1	·	102	92	-35
COc1ccc2cc(-c3nc(Cl)c4c5c(sc4n3)CC(C)CC5)c(=O)oc2c1 (stereo not given)	139	99	97	-10
O=C(O)c1ccccc1C(=O)NC1CCN(c2nccc(C(F)(F)F)n2)CC1	111	93	93	8

Of the compounds above, these contain a CF3 group.
molecule	GIV-Gai inh	Sa growth 42C	Sa growth 42C second temp	HCMV NEC inh
O=C(Cn1nc(Cc2cccnc2)c2ccccc2c1=O)Nc1cccc(C(F)(F)F)c1	103	106	72	-32
O=C(O)c1ccccc1C(=O)NC1CCN(c2nccc(C(F)(F)F)n2)CC1	111	93	93	8

Next section:
molecule	GIV-Gai inh	Sa growth 42C	Sa growth 42C second temp	HCMV NEC inh
Cc1cc(C)c(S(=O)(=O)NCc2ccc3c(c2)CCN3C(=O)c2ccccc2)c(C)c1	106	104	101	·
CCn1nc(C)c2c1c(=O)n(Cc1ccc(F)cc1)c(=O)n2CC(=O)N1CCCCC1C (stereo not given)	104	·	·	-4
COC(=O)C1=C(C)NC(C)=C(C(=O)OC)C1c1ccc(OCc2ccccc2)cc1	98	·	·	-11
COc1ccc(C2=NN(C(=O)CCC(=O)O)C(c3ccc(Cl)cc3)C2)cc1OC (stereo not given)	99	·	·	-43
CCOC(=O)N1CCN(C(=O)CN(c2cccc(Cl)c2Cl)S(=O)(=O)c2ccccc2)CC1	102	·	·	-17
CCc1ccccc1NC(=O)C(CCSC)NS(=O)(=O)c1ccc2c(c1)oc(=O)n2C (stereo not given)	97	105	85	-31
Cc1noc(C)c1CC(C#N)(Cc1c(C)noc1C)C(=O)Nc1ccccc1	·	71	92	-27
O=C(c1cn(-c2ccccc2)nc1-c1cccs1)N1CCN(C2CCS(=O)(=O)C2)CC1 (stereo not given)	·	85	88	-13
c1ccc(-c2nc(N3CCCCCC3)c3ccccc3n2)cc1	104	107	100	·
N#Cc1c(NC(=O)c2ccco2)sc2c1CCCC2	111	94	68	0
N#Cc1c(-c2ccccc2Cl)c(C#N)c2nc3ccccc3n2c1N	189	81	36	·
CC(C)OC(=O)CSC1=C(C#N)C(c2ccccc2Cl)CC(=O)N1 (stereo not given)	107	83	73	-34
Cc1cccc(NCc2cn3ccccc3n2)c1	·	97	92	0
Cc1ccc(C(c2c(O)[nH]c(=S)[nH]c2=O)N2CCC(C)CC2)cc1 (stereo not given)	97	86	86	-20
CSc1nc2ccccc2n1-c1ccccc1	98	106	83	-1
O=C(Cn1c(=O)c(C(F)(F)F)nc2ccccc21)N1CCc2ccccc21	98	98	92	·
COc1ccc(-c2nc3c([nH]2)CCc2nonc2-3)cc1	105	105	82	-14
COc1ccc(-c2cn3nc(N4CCC(C(=O)NCc5ccccc5F)CC4)sc3n2)cc1	100	84	87	·
COC(=O)c1ccc(CSc2nnc3n(Cc4ccc(C)cc4)c(=O)c4ccccc4n23)o1	·	105	94	-14
CCCCN(CC)CCCNC(=O)c1cn(C)c(=O)c2c1c1ccccc1n2C	113	81	92	1
CC(C)(C)S(=O)(=O)/C(C#N)=C/c1cc(C(F)(F)F)cc(C(F)(F)F)c1	104	100	90	-42
COc1ccc(NC(=O)/C=C/c2ccc(OC)c(OC)c2)cn1	99	68	91	-57
O=C(Nc1ccccc1)c1nnc(CCC(=O)N2CCC(N3CCCCC3)CC2)s1	104	·	·	12
Cc1ccc2c(NC(=O)C3CC3)cccc2n1	106	88	89	0
Cc1nc2nc[nH]n2c(=O)c1[N+](=O)[O-]	99	·	·	-16
Cc1nc2cc(C(=O)O)ccc2n1C	99	88	117	-7
CCC(C)C(NCc1cccc(Br)c1)C(=O)O (stereo not given)	102	84	88	-13
CC(C)Oc1ccc(CNC(=O)C2COc3ccccc3C2)cc1 (stereo not given)	99	101	92	·
O=C(Nc1ccccc1C(=O)Nc1ccccc1)c1ccc(Cl)cc1	·	105	94	-10
CCOC(=O)N1CCc2c(sc(NC(=O)c3ccc(S(=O)(=O)N(C)C)cc3)c2C#N)C1	102	101	90	-18
O=C(c1cnc2c(c1)COc1ccccc1-2)c1ccccc1O	107	93	89	-26
COc1ccccc1N1CCN(S(=O)(=O)c2ccc3c4c2CC(=O)N4CC(C)S3)CC1 (stereo not given)	108	·	·	-13
CCc1ccccc1N(C)C(=O)Nc1cn(CC(C)C)c(=O)c2ccccc12	113	106	97	·
CCc1nnc(NC(=O)CN2C(=O)/C(=C\c3cc(OC)c(OC)c(OC)c3)SC2=S)s1	100	·	·	-18
O=[N+]([O-])c1cc(Nc2ncnc3ccccc23)cc(Oc2ccccc2)c1	99	·	·	-26
Cc1cc(C)cc(NC(=O)NC2CCN(c3nc(C)cc(C)n3)CC2)c1	102	90	86	-17
O=C(NC1CCCC1)C1CCN(C(=O)c2cc3sccc3n2Cc2ccc(F)cc2)CC1	108	99	96	-2
CSc1n[nH]c(=O)n1-c1cccc(Cl)c1	106	100	93	0
CN1CC(C(=O)Nc2ccc3c4c(cccc24)CC3)CC1=O (stereo not given)	100	81	102	-86
COc1ccc(NC(=O)CSC2=NC(=O)CC(C)=N2)cc1	104	98	75	-15
COc1cc(O)oc1C=Nc1ccc(C(F)(F)F)cc1	101	·	·	-22
CCc1nnc(-c2cn(CC(=O)NCCN3CCOCC3)c3ccccc23)o1	99	·	·	-21
CCOc1ccccc1CNc1ncnc2c1nc1n2CCCCC1	101	109	97	·
CS(=O)(=O)c1ccc2nc(NC(=O)Nc3ccccc3F)sc2c1	105	110	102	-2
CCOC(=O)c1cnc2ccccc2c1NCCCN(C)C	101	90	86	4
Cn1cnc2c(=O)oc3ccc(S(=O)(=O)NCCc4ccccc4)cc3c21	102&101	93	93	-3&26
CCS(=O)(=O)c1ccc(-c2cccc(NC(=O)c3ccccc3C)c2)nn1	102	·	·	-21
Cc1ccc2nc(-c3cccc(NC(=O)C4CCCCC4)c3)oc2c1	105	75	87	·
COc1cccc(N2C(=O)C(CC(=O)Nc3ccccc3)N(CCc3sccc3C)C2=O)c1 (stereo not given)	99	109	83	-38
N/C(COc1ccccc1Cl)=N\O	110	91	83	-28

The list goes on.
molecule	GIV-Gai inh	Sa growth 42C	Sa growth 42C second temp	HCMV NEC inh
CCn1cc(C(=O)N2CCN(c3cccc(C)c3)C(C)C2)c(=O)c2cc(S(=O)(=O)N3CCOCC3)ccc21 (stereo not given)	100	97	93	-2
O=C(N(c1ccccn1)c1ccccn1)C12CC3CC(CC(C3)C1)C2	·	97	96	1
O=C(Nc1ccc(Cl)cc1)N1Cc2ccccc2Sc2ncccc21	110	·	·	-3
CCC(CC)c1nn2c(=O)cc(COc3ccc(NC(=O)c4ccccc4Cl)cc3)nc2s1	102	104	87	-25
CCOC(=O)c1cc(C)n(CC2CCC(C(=O)NCc3ccccc3)CC2)c1C (stereo not given)	103	91	87	·
O=C(OCc1cc(=O)n2nc(C3CC3)sc2n1)c1cccc(NC(=O)c2ccccc2Cl)c1	108	85	83	·
CN1CCN(c2nc(NCC3CCCO3)c3ccccc3n2)CC1 (stereo not given)	·	96	95	6
CCOC(=O)c1c(C)[nH]c(C)c1S(=O)(=O)NCC(=O)Nc1nccs1	102	97	88	-6
Cc1nc2cc(S(=O)(=O)N3CCC(C(=O)NCc4ccoc4)CC3)ccc2n1C1CCCC1	102	105	93	1
COc1ccc(OC)c(NS(=O)(=O)c2ccc3c(c2)CCCN3C(=O)C2CCC2)c1	107	93	81	·

Full records, looked up by structure. Values in the order: GIV-Gai inh	Sa growth 42C	Sa growth 42C second temp	HCMV NEC inh
`Cc1cc(C)cc(NC(=O)NC2CCN(c3nc(C)cc(C)n3)CC2)c1` is entered as 102	90	86	-17
`O=C(Nc1ccccc1)c1nnc(CCC(=O)N2CCC(N3CCCCC3)CC2)s1` is entered as 104	·	·	12

Random excerpt: two entries already listed.
molecule	GIV-Gai inh	Sa growth 42C	Sa growth 42C second temp	HCMV NEC inh
N#Cc1c(-c2ccccc2Cl)c(C#N)c2nc3ccccc3n2c1N	189	81	36	·
COC(=O)c1ccc(CSc2nnc3n(Cc4ccc(C)cc4)c(=O)c4ccccc4n23)o1	·	105	94	-14

Remaining list, next part.
molecule	GIV-Gai inh	Sa growth 42C	Sa growth 42C second temp	HCMV NEC inh
O=C(Nc1ccc(F)cc1)c1ccc(-n2cnc3cccnc32)cc1	109	117	94	·
Cc1ccc2c(c1)OC=CC(C(=O)Nc1ncc(Cc3ccc(F)cc3)s1)=C2	100	·	·	-23
CCN1C(=O)c2ccccc2Sc2ccc(NC(=O)N3CCc4ccccc43)cc21	98	99	82	·
CCOc1ccc(N(/C=C2\Sc3ccccc3C2=O)C(=O)c2cccc(Cl)c2)cc1	112	·	·	-20
COc1ccc(CN2CCc3c(Br)cccc3C2)cc1	100	·	·	-13
Cc1cccc(CNC(=O)c2ccc(C)c(-n3c(C)nc4cccnc43)c2)c1	104	125	85	·
COC(=O)c1ccc2c(c1)NC(=O)CO2	97	83	95	4&-8
COc1ccc(NC(=O)c2ccc3ncccc3c2)cc1	108	108	101	10
COc1ccc2c(c1)c(C(=O)N1CCN(C)CC1)c(C)n2-c1ccccc1	·	98	87	-9
N#Cc1cnn(-c2ncnc3sc(-c4ccccc4)cc23)c1N	·	93	88	-29
Cc1cc(=O)[nH]c(Nc2cccc(Cl)c2)n1	105	·	·	-20
COC(=O)c1c(NC(C)=O)c2c(C)c(C)sc2n1CC(=O)Nc1ccc(OC)cc1OC	106	·	·	-26
O=C(Nc1ccc2oc(-c3cccc4c(Br)cccc34)nc2c1)c1ccc(F)cc1	106	95	84	-62
Cc1ccc(CNC(=O)C(NS(=O)(=O)c2cccs2)C(C)C)cc1 (stereo not given)	103	112	93	-11
CCc1nnc(NC(=O)CSc2nnc(-c3ccc(Cl)cc3)o2)s1	106	·	·	-14
CC(C)NC(=O)c1cc2c(s1)-c1ccccc1SC2	105	143	77	·
CCCCc1c(O)c2ccccc2n(CCCC)c1=O	105	111	95	1
CC(C)CC(Nc1ncnc2sc3c(c12)CCC3)C(=O)O (stereo not given)	100	106	88	·
c1ccc(-c2csc3ncnc(Sc4nnnn4-c4ccccc4)c23)cc1	·	86	72	-23
Clc1ccc(C2=NCCc3sccc32)cc1	107	121	91	-90
Cc1ccc(N2C(=O)CS(=O)(=O)C23C(=O)N(Cc2ccccc2C)c2ccccc23)cc1Cl (stereo not given)	102	106	104	·
COc1ccc(/C(N)=N/O)cc1O	94	98	80	-31
COc1ccc(OC)c(NC(=O)CCNS(=O)(=O)c2cccc3nsnc23)c1	102	127	87	-95
CC1Cc2ccccc2N1C(=O)CSc1nnc2n1C(C)(C)Cc1ccccc1-2 (stereo not given)	97	110	83	-28
CCOc1ccccc1N(C)C(=O)Cn1cnc2sc(C)c(S(=O)(=O)N3CCC(C)CC3)c2c1=O	99	107	91	0
CC1(c2ccc(Cl)cc2)CC(C)(C)N(C(=O)c2cccc(F)c2)c2ccccc21 (stereo not given)	105	104	74	0
COc1ccc2[nH]c(C(=O)NCc3ccc(Cl)cc3)c(N3CCCC3=O)c2c1	101	·	·	11
